FGF22 binding = binders of recombinant human FGF22 by thermal shift | Q9HCT0 | 340,000 tested, 1.5% active | SYPRO orange fluorescence; percent of sucrose octasulfate shift, DMSO zero | calls only at 9.99 µM;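 active means melting point raised past a set limit in the mean and every replicate; inconclusive means no clear call; three in four hits are not shown here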
Target sequence (Q9HCT0 whole entry, looked up): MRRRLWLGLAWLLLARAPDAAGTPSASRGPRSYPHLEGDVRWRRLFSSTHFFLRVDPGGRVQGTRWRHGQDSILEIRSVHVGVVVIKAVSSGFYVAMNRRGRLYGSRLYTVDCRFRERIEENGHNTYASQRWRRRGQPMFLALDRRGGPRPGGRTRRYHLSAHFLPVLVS
ALR H2O2 inh = blocks human ALR sulfhydryl oxidase activity | purified ALR, DTT oxidation, H2O2 HRP-luminol luminescence | inhibition, % (test concentration not listed) | 290,000 tested, 3.8% active | P55789;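 active means mean and each replicate at 75% or more; inconclusive means only one of the two met; inactive means neither met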;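 further: stock transfer was 7.5 nL into about 7.5 µL; 0% = neutral wells and 100% = wells with inactivated enzyme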
Target sequence (P55789 whole entry, looked up): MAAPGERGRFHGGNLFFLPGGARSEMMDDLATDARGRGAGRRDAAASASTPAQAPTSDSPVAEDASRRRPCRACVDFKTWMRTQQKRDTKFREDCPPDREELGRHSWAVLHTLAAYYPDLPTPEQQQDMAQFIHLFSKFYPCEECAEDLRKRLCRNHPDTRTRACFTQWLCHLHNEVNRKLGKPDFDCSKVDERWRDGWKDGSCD
Beta cell apopt = beta cell apoptosis inhibition. INS-1E cytokine-induced death, ATP luminescence, 48 h; percent of positive-control rescue, neutral wells zero. protection from apoptosis, % (concentration not given with the values). AID 435005. 300,000 tested, 0.8% active;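 active means all replicates at 75% or more, or half of them and the mean; inconclusive means half reach 75% but not the mean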;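 further: 0% = cytokine-treated negative control wells and 100% = positive control rescue; higher means more ATP so stronger rescue from cytokine killing; wells of about 40 µL received 100 nL stock; the first replicate is given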
RanGTP-Impb inh = inhibitors of RanGTP-importin-beta interaction, primary screen, biochemical, FRET, CFP-Ran, YFP-importin-beta, homogeneous; cell-free CFP-Ran/YFP-importin-beta FRET ratio; 300,000 tested, 1.1% active; AID 2216; inhibition, % (test concentration not listed);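 active means most replicates above 15%; inconclusive means exactly half above 15%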;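 further: 0% = DMSO wells and 100% = Ran loaded with GDP instead of GTP; wells of about 40 µL received 100 nL stock; the first replicate is given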
Calb FLC = C. albicans growth modulation with fluconazole; C. albicans CaCi-2 (fluconazole-resistant clinical isolate) + fluconazole, Alamar Blue growth, 48 h; growth inhibition, % (no concentration beside the values); 300,000 tested, 0.57% active;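 active means most replicates above 75%; inconclusive means exactly half above 75%; inactive means most below 75%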;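 further: all wells also contain fluconazole at 8 µg/ml as a sub-toxic cotreatment; 0% = median of DMSO wells and 100% = median of geldanamycin control wells; wells of about 8 µL received 7.5 nL stock; the first replicate is given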
AF4-AF9 inh = inhibitors of human MLL-AF4/AF9 interaction. P42568. AlphaScreen, biotin-AF4 peptide binding to FLAG-AF9. inhibition, % at 10 µM. 350,000 tested, 0.47% active. AID 651704;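 active means every replicate reaching a set inhibition limit, whatever the replicate mean, cut at about 25% in these data; inconclusive means mean inhibition reaches that limit but some replicates miss it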;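 further: 0% = plate neutral control median and 100% = total signal loss; the record names both 10 and 1 µM as test concentration; the first replicate is given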
Target sequence (P42568 whole entry, looked up): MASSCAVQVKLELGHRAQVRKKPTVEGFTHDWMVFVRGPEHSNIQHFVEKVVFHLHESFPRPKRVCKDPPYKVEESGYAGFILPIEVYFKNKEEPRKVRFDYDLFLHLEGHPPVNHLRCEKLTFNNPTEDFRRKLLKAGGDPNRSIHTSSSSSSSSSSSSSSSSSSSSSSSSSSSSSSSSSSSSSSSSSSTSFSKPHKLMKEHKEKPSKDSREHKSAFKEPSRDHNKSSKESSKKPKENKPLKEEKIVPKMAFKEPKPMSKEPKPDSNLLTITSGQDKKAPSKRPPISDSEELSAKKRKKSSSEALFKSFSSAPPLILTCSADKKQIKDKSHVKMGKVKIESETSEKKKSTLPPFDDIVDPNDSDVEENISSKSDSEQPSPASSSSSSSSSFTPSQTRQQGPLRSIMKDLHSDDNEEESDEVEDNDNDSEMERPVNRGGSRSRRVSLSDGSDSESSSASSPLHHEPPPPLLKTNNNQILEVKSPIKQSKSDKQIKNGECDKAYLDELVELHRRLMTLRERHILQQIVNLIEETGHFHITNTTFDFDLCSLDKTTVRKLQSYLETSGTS
Ecoli rRNA inh = inhibitors of bacterial rRNA selective over humanized ribosomes. 350,000 tested, 1.6% active. GFP signal change (wild-type ribosome), % (no concentration beside the values). E. coli WT GFP vs humanized-ribosome RFP mutants, fluorescence, 24 h; hits give low values; DMSO median 0, no signal -100. AID 720706;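 active means significant combined selectivity score with lowered wild-type GFP, culture density cut under 30%, mutant RFP and density less affected; inactive means any of these conditions unmet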; further: one replicate is shown; some compounds called inactive have numbers as strong as hits
T cruzi repl = T. cruzi replication inhibition; AID 1885; T. cruzi beta-gal in NIH3T3, luminescence, 90 h; 300,000 tested, 1.4% active; inhibition, % (test concentration not listed);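 active means mean inhibition across valid replicates above about 55%, limit read from the data; inconclusive means mean below that limit but half or more replicates reach it; inactive means mean below it, under half of replicates reach it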;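 further: signal also drops with host cell toxicity which is not excluded here; 0% = plate median of DMSO wells and 100% = zero luminescence signal; higher percent means less beta-gal luminescence so fewer parasites; stock transfer was 50 nL into about 50 µL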
Ecoli rRNA inh OD600 = recorded beside Ecoli rRNA inh, whose call it bears; OD600 change, %; measured here: OD600 growth;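 optical density of the mix in the first replicate; 0 = DMSO median and -100 = no signal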
Ecoli rRNA inh RFP = also measured in Ecoli rRNA inh; calls as there; RFP signal change, %; measured here: RFP humanized mutant strains;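 first replicate; 0 = DMSO median and -100 = no signal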
* hit, by the source's call; i = inactive; ? = inconclusive; · = no result given; + = active, no number.

SMILES	FGF22 binding	ALR H2O2 inh	Beta cell apopt	RanGTP-Impb inh	Calb FLC	AF4-AF9 inh	Ecoli rRNA inh	Ecoli rRNA inh OD600	Ecoli rRNA inh RFP	T cruzi repl
Cc1ccc(C(C(=O)NC2CCCC2)N(Cc2ccc(F)cc2)C(=O)c2csnn2)o1 (centres undefined)	·	-2	-4	-0.8	6	·	·	·	·	3
CC(=O)c1ccc(S(=O)(=O)N2CCN(C(=O)C3CCCC3)CC2)cc1	i	-2	-4	0.3	-3	1.0	14	9	1.8	2
C/C(=N\NC(=O)c1nnn(-c2nonc2N)c1CN(C)c1ccccc1)c1cccc(O)c1	i	36	1	0.7	·	-2.5	11	10	-3.0	-1
CCOc1ccc(NC(=O)CN(C)C(=O)c2ccccc2SCC(=O)N2CCCC2)cc1OCC	i	1	1	·	1	6.2	3	2	0.7	-5
Cc1ccccc1NS(=O)(=O)c1nnc(NC(=O)c2ccccc2F)s1	i	3	-7	-1.8	-3	2.7	-15	-39	-9.9	-8
O=C(O)c1ccc2c(c1)[C@@H]1C=CC[C@@H]1[C@H](c1ccccn1)N2	·	·	-9	-0.6	110*	·	·	·	·	-3
COCCNC(=O)CN1CCC(NC(=O)c2ccco2)CC1	i	-9	-3	-1.9	2	1.9	-2	0	-1.5	-6
CC1CCN(c2oc(-c3ccccc3F)nc2C#N)CC1	i	-4	-4	?	5	22	-11	-29	-5.1	2
O=C(CSc1nc2ccsc2c(=O)n1CC1CCC(C(=O)O)CC1)c1ccc(Cl)cc1 (centres undefined)	i	12	2	1.7	-4	-10	0	-3	-1.1	-5
COc1ccc(C(=O)OCC(=O)c2ccc[nH]2)c(OC)c1	·	1	4	·	·	-3.4	1	-4	1.3	·
CCn1c(SCC(=O)Nc2ccccc2F)nnc1-c1ccoc1C	i	-6	4	-2.7	-3	3.0	7	5	-0.6	8
CCCCNC(=O)CN1C(=O)C(CC)Oc2ccc(Cl)cc21 (centres undefined)	·	-1	0	-2.6	-14	·	·	·	·	-8
OCC1CCCCN1C(=S)NCc1ccco1 (centres undefined)	i	-8	-4	5.7	-13	0.5	9	7	-0.9	-15
COc1ccc(C(=O)COC(=O)C(CCSC)NC(=O)COc2ccccc2)cc1 (centres undefined)	i	1	0	-2.3	-4	0.1	-2	4	1.1	-6
COc1ccc(C(=O)Oc2ccc[nH]c2=O)cc1	i	-45	-2	1.1	-9	-1.1	5	4	-0.2	-5
CC(C)(C)OC(=O)NCCc1nnc(SCc2cccc(Cl)c2)o1	i	-15	-5	?	0	1.0	-28	-36	-6.4	10
Cc1ccc(SCC(=O)c2cc(C)c(O)c(C)c2)cc1	i	-3	-9	-0.6	5	0.6	-56	-81	-16	-7
CCOc1ccccc1N(CC(=O)N1CCCCCC1)S(=O)(=O)c1ccc(C)cc1	i	-14	1	-0.9	-2	-1.4	-15	-36	1.0	12
COc1ccc(Cl)cc1NC(=O)NCCCl	·	-19	2	-0.9	-8	·	·	·	·	-59
COC(=O)c1c(NC(=O)c2ccc(Br)s2)sc2c1CCC2	·	3	-1	2.1	36	·	·	·	·	9
Cn1c2c(c(=O)n(C)c1=O)[C@@]1(C(=O)Nc3ccccc31)C(C#N)=C(N)O2	i	47	-10	0.6	-45	-1.9	·	·	·	-21
CSc1cnn(Cc2ccccc2)c(=O)c1SCc1ccccc1	·	1	6	4.1	18	·	·	·	·	7
CC1CN(S(=O)(=O)c2ccc(NC(=O)c3cc(-c4ccccc4O)n[nH]3)cc2)CC(C)O1 (centres undefined)	·	34	8	-4.1	53	·	·	·	·	13
Cc1cccc(C(=O)c2c(N)sc3c2CCCC3)c1	·	-20	5	1.9	-5	·	·	·	·	-19
O=C(NCCCN1CCCC1=O)c1cc(-c2ccc(F)cc2)nc2ccccc12	i	·	0	·	·	1.3	-20*	-18*	0.5*	·
COc1cccc(-c2nn(-c3ccccc3)cc2CN(C)C(C)c2ccncn2)c1 (centres undefined)	i	-19	1	-0.5	5	3.7	-12	-15	-1.0	12
OCC[C@@H]1C[C@@H](O)[C@H](O)[C@]2(Cc3ccccc3O2)O1	i	9	-7	?	1	-5.2	1	-3	-4.4	-9
COc1ccccc1CNS(=O)(=O)c1cc(-c2cc(C)no2)ccc1C(C)C	i	-9	14	2.7	5	-1.3	-5	-31	-11	26
O=C(COc1nnc2ccccn12)N1CCN(S(=O)(=O)c2ccccc2)CC1	·	·	-5	-5.0	2	·	·	·	·	-7
Cc1cc2nc(-c3ccncc3)cc(C(F)(F)F)n2n1	i	-6	-6	·	-1	-2.2	-1	8	0.3	·
COCCNC(=O)C(=O)NCC1OCCN1S(=O)(=O)c1ccc(C)cc1 (centres undefined)	i	-1	-2	-3.9	2	-4.5	-1	-1	-1.4	-7
Cn1c(NC(=O)CC(C)(C)C)cc(=O)n(C)c1=O	i	-7	-8	·	·	0.9	6	6	-2.7	·
Cc1ccc(NC(=O)CSc2nncc3ccccc23)cc1	i	99*	-8	?	0	-11	9	16	3.8	4
COc1ccccc1N1CCN(CCCCOc2cccc3ccccc23)CC1	·	·	11	1.3	-25	·	·	·	·	27
CCOC(=O)C1C(=O)NC(C)C1c1ccccc1 (centres undefined)	·	-7	-10	-2.5	1	·	·	·	·	-9
COc1ccc(Cl)cc1-c1n[nH]c(=S)n1C1CCCCC1	·	49	2	0.2	18	·	·	·	·	5
CSc1nc2c(c(-c3ccccc3)c1C#N)CCC2	·	-17	·	-0.2	-7	·	·	·	·	22
Cc1ccc(OCC(=O)N/N=C/C=C/c2ccco2)cc1C	i	2	-5	1.7	32	-9.5	14	12	1.5	2
COc1ccc(C2(CNC(=O)Cc3ccc(OC)c(OC)c3)CCCC2)cc1	i	-3	0	7.9	-1	0.7	-10	-5	-0.8	4
C=CCOc1ccc2c(c1)C(=NO)c1cc(OCC=C)ccc1-2	+	-4	·	-2.9	-18	-70	-20	-24	-7.5	15
Cc1cccc(NC(=S)NC(NC(=O)OCc2ccccc2)C(Cl)(Cl)Cl)c1 (centres undefined)	·	-6	10	-2.0	-7	·	·	·	·	57*
O=C(CN1C(=O)c2ccccc2S1(=O)=O)NCc1ccccc1Cl	i	-10	·	1.9	5	-4.3	4	10	1.1	10
O=C(Nc1ccon1)C12CC3CC(C1)CC(n1cnc([N+](=O)[O-])n1)(C3)C2	i	-16	-1	1.1	-9	-0.7	15	10	2.6	59*
CCN1C(=O)[C@@H]2[C@@H](c3ccc(SC4CCCCC4)cc3)N3CCC[C@@]3(C(=O)OC)[C@@H]2C1=O	i	-4	0	3.6	11	0.8	·	·	·	12
CC(=O)Nc1cccc(C(=O)N/N=C/c2cccnc2)c1	i	-1	-3	-4.0	9	0.4	34	22	3.8	-3
O=C(N/N=C/c1ccc([N+](=O)[O-])o1)c1cc2ccccc2o1	i	-28	100*	1.9	31	2.9	4	6	-0.5	64*
Cc1cccc(NC(=O)NC2CC3CCC(C2)N3Cc2ccco2)c1 (centres undefined)	i	-5	0	-0.8	-8	-0.2	17	14	2.9	11
COC(=O)CN(C(=S)Nc1ccccc1)C1CC(=O)N(c2ccc(OC)cc2)C1=O (centres undefined)	i	2	-6	-2.5	62	3.6	-7	-6	-0.6	-18
CCCCCSc1nnc(-c2cc(Br)ccc2N)c(=O)[nH]1	·	·	3	1.3	-3	·	·	·	·	-7
CCc1ccc(OC)c(S(=O)(=O)NCc2cccs2)c1	i	-4	-10	·	·	0.6	3	-6	1.3	·
CN(C)c1nc(-c2cccs2)cc(C(F)(F)F)c1C#N	i	-17	-4	73*	0	0.2	3	-5	0.9	23
O=C(NCCCc1ccccc1)C1CCC(CNc2c(N3CCCCC3)c(=O)c2=O)CC1 (centres undefined)	·	-2	1	4.4	-8	-0.5	9	3	0.9	-33
Cc1nc2ccc(NC(=S)N3CCC(C)CC3)cc2nc1C	i	3	·	-1.5	47	-3.3	-15	-15	-0.2	-6
COc1ccc2c(c1)C(=O)N1[C@H]3c4cc(OC)ccc4OC[C@@H]3[C@H](c3ccccc3)[C@]1(C)C(=O)N2	i	·	10	·	·	11	3	1	-1.9	·
CCOc1ccc(-c2csc(Cn3c(CN4CCN(C)CC4)nc4ccccc4c3=O)n2)cc1	i	-30	-14	0.2	-5	9.8	·	·	·	11
O=C1C=C(O)c2cccc(O)c2C1=O	i	-21	3	·	·	-0.3	·	·	·	·
COc1ccc(OC)c(NC(=O)CSc2nc3nc(C)cc(C)n3n2)c1	i	-8	-3	·	·	-3.5	-2	8	-2.3	·
Cc1ccc(SCC(=O)OCC(=O)NCCc2ccccc2)cc1	i	·	0	·	·	-6.6	3	-3	-0.9	·
C/C(=N\OCC(=O)Nn1c(C)nc2ccccc2c1=O)c1ccccc1	i	1	2	0.4	15	0.5	-10	-3	-3.4	-9
NC(=O)c1ccccc1NC(=O)c1cc(S(=O)(=O)N2CCCCC2)ccc1N1CCOCC1	i	·	6	·	·	1.4	-8	-8	-2.4	·

Continuation:
SMILES	FGF22 binding	ALR H2O2 inh	Beta cell apopt	RanGTP-Impb inh	Calb FLC	AF4-AF9 inh	Ecoli rRNA inh	Ecoli rRNA inh OD600	Ecoli rRNA inh RFP	T cruzi repl
CCN(CC)CCCN1C(=O)C(=O)/C(=C(/O)c2ccc(C)cc2)C1c1ccccn1 (centres undefined)	·	-6	-15	1.6	-2	·	·	·	·	-18
Cc1cc2cc3c(cc2nc1SCc1ccc(C(=O)O)cc1)OCCO3	i	26	-9	0.7	-6	-3.4	·	·	·	7
Cc1cccc(NC(=O)CCS(=O)(=O)c2ccc(Cl)cc2)c1	i	-2	4	4.9	-4	-1.3	5	3	-4.7	-7
Cc1ccc(NC(=O)c2ccc3ncsc3c2)cc1S(=O)(=O)N(C)C	i	-7	-1	0.1	-26	1.2	-23*	-3.9*	1.0*	-11
Cc1ccc(C(=O)Nc2ccc(F)cc2F)o1	·	5	1	-1.4	3	·	·	·	·	-2
COc1cc(C(=O)O/N=C(\N)c2ccc([N+](=O)[O-])cc2)cc(OC)c1OC	i	-14	11	-1.6	14	0.8	0	0	-0.3	13
CCc1ccccc1NC(=O)Cn1cccc1C1=NC(c2ccccc2)CO1 (centres undefined)	·	-6	0	-1.8	-9	·	·	·	·	-3
CC(C)c1cc(C(F)(F)F)n2nc(C(=O)O)cc2n1	·	0	-3	4.8	-20	·	·	·	·	-1
COc1ccc(CN2CCNC(=O)C2CC(=O)N2CCCN(C(C)=O)CC2)c(OC)c1 (centres undefined)	i	-67	-3	4.9	-3	-3.9	3	8	-2.4	-9
Cc1ccc(S(=O)(=O)N2CCCC2CNC(=O)c2ccc3c(c2)OCO3)cc1 (centres undefined)	i	3	-6	2.3	6	-5.0	-1	-1	-3.3	1
CC(Sc1sc(=S)sc1SC(C)C(=O)O)C(=O)O (centres undefined)	·	-2	-1	2.1	0	·	·	·	·	-25

Bioassay records deposited in PubChem BioAssay by Broad Institute.

These rows are one share of the data (hit frequency here may not be typical).
